# NPR1 antag – Natriuretic polypeptide receptor (hNpr1) antagonism - Primary qHTS; Atrial natriuretic peptide receptor 1 (Homo sapiens), P16066; HEK293 hNpr1 GloSensor cGMP, ANP-stimulated luminescence; Potency, µM (top dose mostly 46.3 µM), inactives show at the highest dose activity change, negative = inhibition, hits mostly inhibitors; 1.6% of 76,000 active; AID 1347048, 2019; active = well fitted inhibition curve with a large enough effect; inconclusive = small, poorly fitted or top-dose-only effect; inactive = no such curve, though single readings can be large or run the other way;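 also: nearly all actives have a fitted effect of over 60% in size; nearly all hits also lower the signal before the agonist is added; a reference antagonist and vehicle were the controls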
# Target sequence (P16066 whole entry, looked up): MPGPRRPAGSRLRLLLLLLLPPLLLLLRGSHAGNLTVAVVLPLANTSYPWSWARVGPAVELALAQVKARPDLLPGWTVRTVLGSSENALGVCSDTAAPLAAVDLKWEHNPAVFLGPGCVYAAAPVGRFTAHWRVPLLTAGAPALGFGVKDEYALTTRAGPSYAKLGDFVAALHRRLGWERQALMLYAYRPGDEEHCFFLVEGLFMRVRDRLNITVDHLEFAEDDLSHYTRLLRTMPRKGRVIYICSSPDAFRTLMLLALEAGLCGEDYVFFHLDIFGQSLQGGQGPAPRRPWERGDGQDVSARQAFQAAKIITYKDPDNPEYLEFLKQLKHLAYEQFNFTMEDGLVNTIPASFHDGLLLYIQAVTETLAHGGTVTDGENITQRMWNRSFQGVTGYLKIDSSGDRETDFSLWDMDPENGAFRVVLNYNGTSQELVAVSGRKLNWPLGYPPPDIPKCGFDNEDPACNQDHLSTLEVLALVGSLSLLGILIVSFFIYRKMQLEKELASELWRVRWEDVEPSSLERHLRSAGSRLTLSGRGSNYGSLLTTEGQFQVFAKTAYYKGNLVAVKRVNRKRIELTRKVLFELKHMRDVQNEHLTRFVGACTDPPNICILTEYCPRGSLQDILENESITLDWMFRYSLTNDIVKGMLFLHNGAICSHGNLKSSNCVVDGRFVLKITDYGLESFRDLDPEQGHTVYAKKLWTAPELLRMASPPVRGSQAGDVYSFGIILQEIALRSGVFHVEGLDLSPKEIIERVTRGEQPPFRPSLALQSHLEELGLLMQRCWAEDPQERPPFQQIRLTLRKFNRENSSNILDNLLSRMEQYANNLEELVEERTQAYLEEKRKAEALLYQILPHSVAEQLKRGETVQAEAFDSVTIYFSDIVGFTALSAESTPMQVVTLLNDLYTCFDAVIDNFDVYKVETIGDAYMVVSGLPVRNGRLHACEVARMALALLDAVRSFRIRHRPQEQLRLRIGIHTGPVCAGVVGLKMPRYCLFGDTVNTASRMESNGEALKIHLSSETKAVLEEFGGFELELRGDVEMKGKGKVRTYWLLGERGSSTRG
#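 HEK293 cells stably expressing human Npr1 and cGMP GloSensor pGS-40F, loaded 2 h with 2% GloSensor reagent, given compound 30 min at room temperature. Luminescence read before and 20 min after 0.1 nM hNppA.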
# * marks the source's active call; other numbers are inactive results; ? = inconclusive; [ ] = dose if it differs, or a comment. % is scaled to controls: 0 for no effect and ±100 for the full control effect; potency is read from the fitted curve at half-maximal effect.
SMILES,NPR1 antag
COc1ccc(NC(=O)C2(C)CCCCC(=O)N2)cc1F (stereo not drawn),-10%
CCNC(=O)N[C@H]1CC[C@]2(C)CC[C@@H](C(C)C(=O)NC3CCCC3)[C@H](O)[C@H]2[C@@H]1C (stereo partly drawn),-1%[70.6 µM]
O=C(c1ccc(F)cc1)N1CCc2nc(C3CC3)nc(-c3ccc(Cl)cc3)c2C1,7%
CC[C@H]1CN(C(=O)C2CC2)CC[C@H]1CC(=O)NCc1ccc2c(c1)OCO2,-2%[70.6 µM]
COc1cccc(-c2nc3cc4c(cc3cc2CN2CCSCC2)OCO4)c1OC,0%
CCCN1CCc2[nH]cnc2C12CCN(C(=O)c1ccc(CSC)o1)CC2,-5%
Cc1ccc(-n2nc(-c3c(C)nc4scc(CC(=O)N5CCCC5)n4c3=O)cc2C)cc1,-1%
O=C([C@H]1C[C@H](Oc2ccccc2)CN1C(=O)NCCc1ccccc1)N1CCOCC1,6%
CC1=C[C@@H](CN2C(=O)c3ccccc3C2=O)[C@H](C(C)C)C[C@H]1Cc1nc2ccccc2[nH]1,?
Cc1nc2c(c(-c3ccc(Cl)cc3)n1)CCN(C(=O)c1ccccc1)CC2,-19%
COc1ccc(NC(=O)N2CC(N(CC(C)C)C3CCOCC3)C2)cc1F,3%
O=C([C@@H]1C[C@H](Oc2cccnc2)CN1C(=O)c1ccncc1)N1CCOCC1,-2%
CCC(C)NC(=O)C1COC2(CCN(C(=O)c3ccc(F)cc3)CC2)N1C(=O)c1cccc(OC)c1 (stereo not drawn),1%
CC(C)c1noc([C@@H]2Cc3nc[nH]c3CN2C(=O)Nc2ccc(Cl)cc2)n1,-3%[70.6 µM]
CC(=O)N1CCc2cc(S(=O)(=O)CCC(=O)N3CCC(CCOc4ccccc4)C3)ccc21 (stereo not drawn),10µM*
CC(C)C[C@@H]1N[C@H](C(=O)N2CCOCC2)Cc2cn(Cc3ccccn3)c3cccc1c23,-5%[70.6 µM]
COCCN1CCC(CNc2nccc(-c3ccccn3)n2)C1 (stereo not drawn),2%
Cn1cc(CN2C[C@H](C(=O)Nc3nccs3)C[C@H]2c2cccc(C(F)(F)F)c2)cn1,1%[70.6 µM]
O=C(C1CC(=O)N(c2n[nH]c3ccccc23)C1)N1CCC(c2nc3ccccc3[nH]2)CC1 (stereo not drawn),-1%
COCCOCC(=O)N1CCCC(c2nn(C)c(=O)n2-c2ccccc2)C1 (stereo not drawn),-1%
COc1ccc(-c2nc(-c3nnn4c3COC(c3ccc(Cl)cc3)C4)no2)cc1 (stereo not drawn),12%
Cc1ccccc1CCN1CCCC(CN(C)C(=O)Nc2ccccc2C)C1 (stereo not drawn),-2%
Cc1cc(C(F)(F)F)nc(CNc2cc(C)nc3c(C)c(C)nn23)n1,1%
COc1cccc(CC(=O)Nc2ccc3c(c2)CN(Cc2ccccc2F)C(=O)C(C)O3)c1 (stereo not drawn),?

# Looked up by compound from the list above (5):
SMILES,NPR1 antag
COCCN1CCC(CNc2nccc(-c3ccccn3)n2)C1 (stereo not drawn),2%
Cn1cc(CN2C[C@H](C(=O)Nc3nccs3)C[C@H]2c2cccc(C(F)(F)F)c2)cn1,1%[70.6 µM]
CC(=O)N1CCc2cc(S(=O)(=O)CCC(=O)N3CCC(CCOc4ccccc4)C3)ccc21 (stereo not drawn),10µM*
COc1cccc(CC(=O)Nc2ccc3c(c2)CN(Cc2ccccc2F)C(=O)C(C)O3)c1 (stereo not drawn),?
O=C(C1CC(=O)N(c2n[nH]c3ccccc23)C1)N1CCC(c2nc3ccccc3[nH]2)CC1 (stereo not drawn),-1%

# Additional structures.
SMILES,NPR1 antag
Cc1cc(C)n(CCC(=O)N[C@@H]2CN(S(C)(=O)=O)C[C@H]2CN(C)C)n1,-2%
CC(=O)NC1(C)CCN(Cc2cnc(-c3cccc(N4CCOCC4)c3)s2)CC1,-6%[70.6 µM]
O=C(c1coc(COc2cccc(F)c2)n1)N1CCN(c2ccccc2)CC1,-15%
CN(C)C[C@@H]1CN(c2ccncn2)C[C@H]1NC(=O)c1cc(Cl)ccc1F,-2%
Cc1ccc(CN[C@@H]2CO[C@H](CNC(=O)c3ccccc3)[C@H]2O)cc1,-14%[70.6 µM]
CCCn1ccc2sc(C)c(C(=O)NCc3ccccc3)c2c1=O,5%
COc1ccc(C(=O)NC[C@@H]2C=C(C)[C@H](CC(=O)N3CCN(C(C)=O)CC3)C[C@H]2C(C)C)cc1,7%
O=C(NCCCN1CCCc2ccccc21)C1Cn2cccc2C(=O)N1Cc1cccnc1 (stereo not drawn),-1%
COCCN(Cc1cnn(C)c1)C(=O)c1ccc2nc(C)cn2c1,-2%
Cc1nc(CCNC(=O)[C@H]2CNC[C@H](C(=O)N3CCOCC3)C2)sc1Cl,2%
CN(C)c1ccc(C(=O)NCC2CCN(c3cc(-c4ccccc4)[nH]n3)CC2)cc1,-10%
C#CCNC(=O)c1nc(-c2cccnc2)c2ccccn12,0%[70.6 µM]

# Rewritten with tabs: 2 of the compounds above
SMILES	NPR1 antag
CCCn1ccc2sc(C)c(C(=O)NCc3ccccc3)c2c1=O	5%
COc1ccc(C(=O)NC[C@@H]2C=C(C)[C@H](CC(=O)N3CCN(C(C)=O)CC3)C[C@H]2C(C)C)cc1	7%

# Following part.
SMILES,NPR1 antag
CN(C)C[C@@H]1CN(Cc2cccnc2)C[C@H]1NC(=O)CCn1cccn1,2%
COc1ccc(CN2CC[C@H](c3nc4ccc(C)cc4[nH]3)C2)cc1,0%[70.6 µM]
COCCN1CCOC2(CCN([S+](=O)([O-])c3ccccc3C)CC2)C1=O,2%[70.6 µM]
Cc1cccc(C)c1-c1nc(C(=O)N(C)C)n2ccccc12,-18%[70.6 µM]
NC(=O)c1cc[nH]c1C1CCCN(S(=O)(=O)c2cccc3cccnc23)C1 (stereo not drawn),4%
O=C(NCCC(c1ccccc1)c1ccccc1)c1cn(C2CCCCC2)nn1,1%
NC1CCc2nn(CC(=O)N3CCc4ccccc43)c(=O)n2CC1 (stereo not drawn),10%
CC(C)c1ccc(CN2CC(Oc3ccccc3C(=O)NC3CC3)C2)cc1,-4%
CCC(CC)C(=O)N1CC(c2nnc(-c3ccc(C)cc3)o2)C2(CCOCC2)C1 (stereo not drawn),1%
COc1ccc(C(=O)NC2CCN(c3ccc(F)cc3)C2=O)cc1 (stereo not drawn),-1%
COC[C@H]1C[C@@H](NC(=O)c2cccnc2)[C@H](O)[C@@H]1O,-3%[70.6 µM]
O=C(CN1CCCCCCC1)N1CCn2nc(Cc3ccccc3)cc2C1,-13%

# Individual results from above.
# For NPR1 antag, CN(C)c1ccc(C(=O)NCC2CCN(c3cc(-c4ccccc4)[nH]n3)CC2)cc1 reads -10%
# For NPR1 antag, COCCN1CCC(CNc2nccc(-c3ccccn3)n2)C1 (stereo not drawn) reads 2%

# Back to the main list; the 6 compounds before the break are reprinted first.
SMILES,NPR1 antag
NC1CCc2nn(CC(=O)N3CCc4ccccc43)c(=O)n2CC1 (stereo not drawn),10%
CC(C)c1ccc(CN2CC(Oc3ccccc3C(=O)NC3CC3)C2)cc1,-4%
CCC(CC)C(=O)N1CC(c2nnc(-c3ccc(C)cc3)o2)C2(CCOCC2)C1 (stereo not drawn),1%
COc1ccc(C(=O)NC2CCN(c3ccc(F)cc3)C2=O)cc1 (stereo not drawn),-1%
COC[C@H]1C[C@@H](NC(=O)c2cccnc2)[C@H](O)[C@@H]1O,-3%[70.6 µM]
O=C(CN1CCCCCCC1)N1CCn2nc(Cc3ccccc3)cc2C1,-13%
Cc1ccc(NC(=O)N2CCC(CCNC(=O)CC3CCCC3)CC2)cc1,-1%
COCc1ccccc1-c1cn(C)c(=O)n2cc(COc3ccc(Cl)cc3)nc12,?
Cc1ncsc1CN1CCn2c(nnc2[C@@H]2C[C@@H](O)CN2Cc2cccnc2)C1,-1%
CC(=O)N1CCC(N2C[C@@H]3OCC(=O)N(Cc4ccccc4)[C@@H]3C2)CC1,-1%[70.6 µM]
COCCN1CCCCCC(O)c2cc(C(=O)N3CCc4ccccc43)ccc21 (stereo not drawn),-30%
COc1ccc(C(=O)NC[C@H]2O[C@H](Cc3cc(CN4CCOCC4)on3)CC[C@@H]2O)cc1,-2%
CN(C)c1nc(-c2ccccc2)nc2c1CCN(C(=O)C1CCOC1)C2 (stereo not drawn),3%
COc1ccc(CC2(CO)CCN(c3nccc(N)n3)CC2)cc1,3%
COc1cccc2c1ccn2CCC(=O)Nc1ccc2c(c1)C(=O)N1CCC[C@H]1C(=O)N2,-1%
O=C(NCCc1ccccc1)c1ccc2c(c1)OCCN(c1ccccc1)C2,-6%[70.6 µM]
O=C(NCc1cccs1)C1CN(S(=O)(=O)c2cccnc2)CC12CCCCC2 (stereo not drawn),1%
C=CCN1CCN(C(=O)C2N(C(C)C)C(=O)C23CCCCC3)CC1 (stereo not drawn),3%
CC(C)c1noc(C2CCCN(C(=O)C3CCCC3)CCC(=O)NCC2)n1 (stereo not drawn),3%
COc1ccccc1OCc1cc(C(=O)NCc2cccc(C)c2)n[nH]1,0%
CCCCS(=O)(=O)N1CCc2n[nH]c(=O)n2CC1,-1%
COC1CCC12CCN(C(=O)C1CCCCC1)CC2 (stereo not drawn),0%
Cn1ccc2c(C(=O)NCc3cccnc3)nc(-c3cncnc3)cc21,2%[70.6 µM]
COc1ccccc1CN1CC[C@H](CNC(C)=O)[C@H](N(C)C)C1,2%
COCC1CN(Cc2cnn(C(C)C)c2)CC12CCNCC2 (stereo not drawn),1%
O=C(C1CCC1)N1CCN(c2nnc3ccc(Cl)cn23)CC1,2%
CN(C)C(=O)c1ccnc(-c2nnc3ccc(NCCN4CCOCC4)nn23)c1,3%[70.6 µM]
COCCN1C(=O)CCC2(C(=O)NCCCc3ccccc3)CCCC=C12 (stereo not drawn),1%
COc1ccc(NC(=O)C2CN(S(=O)(=O)C3CC3)CC23CCCCC3)cc1F (stereo not drawn),-1%
Cc1cnc(C(=O)N(C)C2CCc3nn(CC4CC4)c(=O)n3CC2)cn1 (stereo not drawn),2%
O=C(NC[C@@H]1CCN(C(=O)Cc2ccccc2O)C[C@H]1O)C1CCCC1,3%
Cc1ccc(-c2noc([C@@H]3C[C@@H](O)CN3C3CCCCC3)n2)cc1F,3%[70.6 µM]
O=C([C@@H]1C[C@H](Oc2cccnc2)CN1C(=O)Nc1ccccc1F)N1CCOCC1,-6%
CS(=O)(=O)N1CCCC1c1noc(CCC(=O)NC2CCCCCC2)n1 (stereo not drawn),0%
Cc1c(F)cccc1NC(=O)N1CCCC(c2noc(COc3ccccc3)n2)C1 (stereo not drawn),-25%
CCn1nc(CC(C)C)cc1C(=O)N(C)Cc1cccc(-n2cccn2)c1,-15%
O=C(NCC1CC1)c1csc(N2CCN(c3ccccc3F)CC2)n1,-24%
COCCn1cnnc1CCNc1cc(C2CC(O)C2)nc(N)n1 (stereo not drawn),-16%
CCc1ccc(N2CC(c3ncon3)CC2=O)cc1 (stereo not drawn),0%
COc1ccc(C2=NOC(C(=O)NC(C)C)C2)cc1 (stereo not drawn),-1%
COc1ncc(-c2cc3c(nc2OC)nc(CC2CC2)n3C)cn1,5%[70.6 µM]
COc1cc(Cl)ccc1-c1cccc(COc2cnc3c(ccn3CC(=O)O)c2)c1,-2%[70.6 µM]
CCOc1ccccc1NC(=O)Cn1c(-c2ccc(Cl)cc2)nc(C)c(CCO)c1=O,10%
O=C(NC1CCN(c2cc(-c3ccc(F)cc3)[nH]n2)CC1)c1cccnc1,-15%
CCc1ccc(C(=O)NC2CCN(c3cc(-c4cccs4)[nH]n3)CC2)cc1,-25%
Cc1ccc(NC(=O)C2CC(=O)N(c3n[nH]c4cc(Br)ccc34)C2)c(C)c1 (stereo not drawn),-11%
COc1ccc(CN2C(=O)CO[C@H]3CN(Cc4ccc5c(c4)OCO5)C[C@H]32)cc1,32µM*
Cc1nnc2n1CCC(N)CC2 (stereo not drawn),0%

# Compound activity from PubChem.

# An excerpt; count on the stated rates, not on these rows.
